Rango release inh: prevents RanGTP from dissociating the Rango-importin beta complex. AID 540253. Potency, µM (highest dose often 46.1 µM), for the others: top-dose activity change, negative = inhibition. Biochemical FRET Rango-importin beta, RanGTP-induced dissociation. hit rate 0.071% among 340,000; active means falling FRET ratio curve, often poorly fitted, with flat reads before Ran was added; inconclusive means other falling curves, or compound fluorescence or quenching; inactive means flat or rising ratio curve;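 further: potency means the concentration at half of the fitted maximal effect; % of control where 0% means no effect; nearly all actives have a fitted effect of over 45% in size; -100% = wells without RanGTP and RCC1; the record marks most hits as doubtful in a second field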
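FRET read at 45 min, room temperature: inhibitors block the CFP/YFP signal rise when RanGTP (0.6 uM Ran, 2 mM GTP, 0.2 uM RCC1) frees Rango (0.1 uM) from importin beta (0.25 uM). Pre-read after 5 min compound exposure flags interference.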
Rango complex inh: Rango-importin beta binding inhibition | Rango CFP/YFP FRET sensor + importin beta, 45 min | hit rate 0.031% among 340,000 | Q14974 | AID 540263 | Potency, µM (titrated, usually from 92.2 µM), without a hit: top-dose inhibition of complex formation; active = rising FRET ratio curve, often small or poorly fitted; inconclusive = mostly compound fluorescence or quenching in the first reads; inactive = flat curves in all reads;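 further: potency means the concentration at half of the fitted maximal effect; 0% = DMSO wells and 100% = buffer wells lacking importin beta; nearly all actives have a fitted effect of over 15% in size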
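FRET biosensor (snurportin 1 IBB flanked by EYFP and cerulean), 50 nM, with compound 5 min, then 0.125 microM importin beta in PBS, 1 mM DTT, 0.02% Tween-20, 0.1% BSA. CFP/YFP ratio read after 45 min at room temperature; pre-read flags interference.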
miR-21 FLuc: raises the signal of a miR-21 reporter; HeLa miR-21 FLuc reporter, luciferase, 48 h; Potency, µM (top dose mostly 38.3 µM), for inactives: top-dose reporter change, positive = more light; 340,000 tested, under 10 active; AID 2288; active = well fitted rising curve with a large enough effect; inconclusive = small, poorly fitted or top-dose-only effect; inactive = no such curve, though single readings can be large or run the other way;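 further: % of control where 0% means no effect; miR-21 action dims this reporter so a rising signal means less miR-21 action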
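HeLa cells stably expressing CMV-driven firefly luciferase with a downstream miR-21 binding sequence, endogenously expressing miR-21, were treated with titrations (up to about 40uM final) for 48 hours at 37 degree Celsius. Luciferase luminescence was read after lysis.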
GLA inh pH 4.5: alpha-galactosidase A (human) inhibition, pH 4.5. AID 1467. activity change, negative = inhibition, % at 105 µM. P06280. 230,000 tested, under 10 active. purified enzyme, 4-MU-alpha-Gal fluorescence, pH 4.5; inconclusive = small, poorly fitted or top-dose-only inhibition, or a rising curve; inactive = flat fitted curve, though single readings scatter; no compound was filed as active;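 further: 0% = full activity with enzyme and -100% = basal without enzyme; dose as in the result columns while the protocol names 77 µM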
Target sequence (P06280 whole entry, looked up): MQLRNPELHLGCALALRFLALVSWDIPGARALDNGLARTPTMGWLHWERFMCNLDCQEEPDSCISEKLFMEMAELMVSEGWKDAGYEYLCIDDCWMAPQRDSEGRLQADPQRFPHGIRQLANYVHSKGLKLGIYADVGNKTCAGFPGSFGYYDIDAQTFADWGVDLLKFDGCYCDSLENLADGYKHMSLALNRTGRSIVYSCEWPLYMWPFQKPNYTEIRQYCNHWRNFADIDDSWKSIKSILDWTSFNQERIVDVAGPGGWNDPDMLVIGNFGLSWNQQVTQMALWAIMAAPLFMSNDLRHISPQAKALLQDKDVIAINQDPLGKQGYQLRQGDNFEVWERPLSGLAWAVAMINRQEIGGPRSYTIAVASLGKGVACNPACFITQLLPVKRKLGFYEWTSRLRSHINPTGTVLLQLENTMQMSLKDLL
* = called active by the depositor; u = inconclusive; x = not tested or not shown; & = joins results of further samples. This is a subset (hit frequency here may not be typical).

structure,Rango release inh,Rango complex inh,miR-21 FLuc,GLA inh pH 4.5
Cc1nc2sc(C(=O)O)c(N)c2c2c1COC(C)(C)C2,-21%,u,-11%,1
Cc1cc(NC(=O)CN2CCC(n3nnc4cc(C(F)(F)F)ccc43)CC2)no1,31%,-1.9%,1%,-2
Cc1nnc(SCCC(C)C)[nH]c1=O,1%,-1.0%,-11%,-1
CC(C)Cn1c(=O)c2ccccc2n2c(CCC(=O)NCC3CCCO3)nnc12 (stereo not given),u,-2.3%,1%,x
Cc1ccccc1CN(C)C(=O)COC(=O)CSc1ccc([N+](=O)[O-])cc1,-12%,-0.2%,x,x
COC(=O)C1=CN(c2ccc(F)cc2)C=C(C(=O)OC)C1c1cccc([N+](=O)[O-])c1,8%,2.7%,-2%,x
Cc1c(NC(=O)CSC2=C(C#N)C(c3ccccc3F)CC(=O)N2)c(=O)n(-c2ccccc2)n1C (stereo not given),3%,-3.1%,1%,5
CC(C)Cn1c(N)c(C(=O)CSc2nc3ccccc3c(=O)n2CCCN2CCOCC2)c(=O)n(C)c1=O,x,x,-3%,-28
Cc1ccc(-c2nnc(N3CCN(C(=O)CN4C(=O)c5ccccc5C4=O)CC3)c3ccccc23)cc1,-15%,-0.4%,x,x
O=C(O)C1CCN(c2nc(-c3ccccc3)c3cc(Br)ccc3n2)CC1,u,u,-1%,x

More structures follow.
structure,Rango release inh,Rango complex inh,miR-21 FLuc,GLA inh pH 4.5
O=C(NC1CCN(Cc2ccccc2)C1)c1cc(S(=O)(=O)N2CCOCC2)ccc1Cl (stereo not given),-11%,3.0%,x,x
COc1cc2ccccc2cc1C(=O)N1CCCC(C(F)(F)F)C1 (stereo not given),1%,2.3%,x,x
COc1ccc(CNS(=O)(=O)c2ccc3c(c2)CCN3C(=O)C2CC2)cc1,-8%,0.0%,4%,0
COc1ccccc1-c1nnc(NC(=O)c2ccc(S(=O)(=O)N(C)C)cc2)o1,0%,1.0%,-3%,2
COc1cccc(-c2nc3n(n2)C(c2cccs2)C(C(=O)Nc2cccnc2)=C(C)N3)c1 (stereo not given),1%,0.2%,-3%,-13
COCCNc1nc(SC)nc2sc3c(c12)CCN(C)C3,u,u,-10%,x
CCOC(=O)c1nc(NCc2ccccc2)sc1C,6%,1.5%,-21%,x
O=C(O)c1ccccc1SCC(=O)N1CCc2ccccc21,-1%,0.7%,-19%,7
O=C1[C@H]2[C@@H](c3ccc(Cl)cc3)N3C(=O)N(c4cccc(Br)c4)C(=O)[C@@]3(Cc3ccc(Cl)cc3)[C@H]2C(=O)N1C1CCCCC1,6%,5.2%,4%,x
Cc1ccc(C)c(NS(=O)(=O)c2cc(C(=O)N3CCCC3)ccc2Cl)c1,-2%,2.4%,-1%,-5

Carrying on:
structure,Rango release inh,Rango complex inh,miR-21 FLuc,GLA inh pH 4.5
CCN(CC)CCNC(=O)c1ccc(NC(=O)c2ccc(F)cc2F)cc1,3%,-1.8%,-11%,15
CC(=O)NCCNC(=O)c1oc2ccccc2c1CSc1ncn[nH]1,23%,-4.6%,-2%,-6
Cc1cc2ncn(C(=O)c3c(-c4ccccc4)noc3C)c2cc1C,-2%,0.3%,1%,-7
O=C(c1ccccc1Sc1ccc([N+](=O)[O-])cc1Cl)N1CCOCC1,31%,-0.5%,-15%,-5
O=C(NCc1ccccc1)C1CCCN(c2cnccn2)C1 (stereo not given),-1%,-2.2%,0%,x
COc1ccc2occ(C(=O)c3ccccc3)c2c1,-17%,u,-53%,-6
CCOC(=O)N1CCN(C(=O)CN2C(=O)CC(C)(C)S(=O)(=O)c3ccccc32)CC1,-5%,0.1%,1%,12
COCCn1nnnc1C(c1ccccc1OC)N1CCN(C(=O)c2ccco2)CC1 (stereo not given),11%,0.9%,6%,x
O=C(COC(=O)c1ccc([N+](=O)[O-])s1)Nc1ccccc1,0%,2.1%,-1%,-18
Cn1cccc2[nH]c(=O)nc1-2,-14%,-0.3%,1%,-6

Further entries.
structure,Rango release inh,Rango complex inh,miR-21 FLuc,GLA inh pH 4.5
CCOC(=O)Cn1nnnc1C(CC)N(Cc1ccccc1)Cc1cc2cc(C)ccc2[nH]c1=O (stereo not given),-5%,7.6%,-5%,-4
Nc1nnc(CC(=O)N/N=C/c2ccc(-c3ccccc3Cl)o2)s1,-11%,-0.5%,-12%,6
COc1ccc(-n2nc(C(=O)N3CCC(C#N)CC3)c3c4ccccc4n(C)c3c2=O)cc1,-4%,-4.0%,x,x
CCC1CCC2(CC1)SCC(=O)N2c1ccccc1 (stereo not given),35%,u,-5%,-13
CC(C)NC(=O)N(C)C[C@H]1Oc2c(NC(=O)C3CC3)cccc2C(=O)N([C@H](C)CO)C[C@@H]1C,-5%,-0.1%,x,x
Cc1ccc(C(=O)C[n+]2ccc(-c3nnc4n3CCC4)cc2)cc1,-7%,u,-4%,4
CC(C)n1c(SCC(=O)N2CCN(C(=O)c3ccco3)CC2)nc2c1c(=O)n(C)c(=O)n2C,4%,-0.1%,-4%,1
COc1cc(C2c3cc4c(cc3OC(C)(N3CCCC3)C2C)OCO4)cc(OC)c1OC (stereo not given),-5%,-0.5%,x,x
O=C(On1c(-c2ccccc2)nc2ccccc2c1=O)c1ccco1,7%,0.4%,-7%,1
CCOC(=O)c1ccc(NC(=O)C2CCN(S(=O)(=O)CC)CC2)cc1,-18%,u,-5%,-5

Additional compounds:
structure,Rango release inh,Rango complex inh,miR-21 FLuc,GLA inh pH 4.5
CC(=O)Nc1cc(C(=O)OCC(=O)c2ccc(C)cc2)ccc1C,-9%,0.1%,-66%,7
Cc1cccc(NC(=O)CC2Nc3cccc4cccc(c34)NC2=O)c1 (stereo not given),1%,-2.8%,-1%&-2%,-3
Cc1ccc(C2CN=NC23CCc2ccccc2C3=O)cc1 (stereo not given),1%,-1.0%,-43%,-2
COc1cc(CC(=O)NCCc2ccc(OCc3ccccc3)cc2)c([N+](=O)[O-])cc1OC,1%,1.0%,-19%,9
c1ccc(-c2csc3ncnc(N4CCc5ccccc5C4)c23)cc1,-2%,1.5%,20%,7
COc1ccc(OC)c(C2=Nn3c(nnc3-c3cccc(OC(C)C)c3)SC2)c1,14%,-1.9%,-2%,-5
OCCCc1nc2n(n1)C(c1ccccc1)C=C(c1ccc(F)cc1)N2 (stereo not given),u,u,-20%,0
Cc1ccc(C(=O)NC(=O)CSc2nnc(C)s2)cc1,-8%,-2.5%,-2%,x
COCCC(=O)Nc1ccc2c(c1)CN(C(=O)c1ccc(CSC)o1)CC2,-2%,-5.7%,-10%,x
Cn1c(=O)c2c(nc(Oc3ccc4ccccc4c3)n2C)n(C)c1=O,8%,0.0%,9%,7

Next section.
structure,Rango release inh,Rango complex inh,miR-21 FLuc,GLA inh pH 4.5
O=C(O)c1cccc(S(=O)(=O)N2CCC(Cc3ccccc3)CC2)c1,9%,-1.4%,-1%,x
CC(=O)C1=C(C)NC(SCC(N)=O)=C(C#N)C1C (stereo not given),-6%,-2.8%,5%,-10
Cc1ccc(NC(=O)c2cc(=O)n(Cc3ccccc3)c(=O)[nH]2)cc1C,-1%,-1.2%,-4%,-2
COC(=O)c1[nH]c2ccc(C)cc2c1NS(=O)(=O)c1ccc(F)cc1,-20%,-1.4%,0%,8
CCCCCCCNC(=O)C1(CC2CC(c3cccc(Br)c3)=NO2)CCN(C(=O)c2ccccc2)CC1 (stereo not given),0%,1.5%,x,x
CN1CCC(=NNC(=O)CN(c2ccc(Oc3ccccc3)cc2)S(C)(=O)=O)CC1,-7%,0.4%,0%,5
COc1cc(/C=C2\C(=O)NN(c3ccc(C)cc3)C2=O)cc([N+](=O)[O-])c1O,18%,-0.9%,-7%,-4
CCc1nnc(NS(=O)(=O)c2ccc(NC(=O)c3ccco3)cc2)s1,-9%,3.6%,0%,0
O=C(CCNC(=O)c1ccco1)NCCN1C(=O)S/C(=C\c2ccc(F)cc2)C1=O,-3%,4.1%,x,x
O=C(NC1CCC(O)CC1)c1cc(-c2ccco2)nc2ccccc12 (stereo not given),-3%,-0.5%,-6%,u

(list continues)
structure,Rango release inh,Rango complex inh,miR-21 FLuc,GLA inh pH 4.5
Cc1ccc(C2(CCNCc3ccc(N(C)C)cc3)CCOC(C(C)C)C2)cc1 (stereo not given),-18%,-3.6%,u,-7
CCCN(CCC)C(=O)CC(c1ccccc1)C1CCOC(C)(C)C1 (stereo not given),-15%,-0.9%,-1%,-12
CCCCN(CCCC)CC(O)Cn1c2ccccc2c(=O)c2ccccc21 (stereo not given),u,u,-2%,-11
CCN1CCN(S(=O)(=O)c2ccc(Cl)c(C(=O)N(CCc3ccccc3)Cc3ccccc3)c2)CC1,1%,2.4%,x,x
COc1ccc(NC(=O)c2cccn(CC=C(C)C)c2=O)cc1,2%,-4.8%,-31%,-3
COCCNC(=S)N/N=C(\C)c1ccccc1F,5%,-2.4%,-5%,0
CS(=O)(=O)N1CCN(C(=O)Cc2ccccc2Cl)CC1,7%,-0.9%,0%,-22
Cc1cccc(NC(=O)Nc2nnc(-c3ccccc3)o2)c1,-16%,0.2%,-6%,-6
Cc1nn(-c2ccccn2)c2c1-c1nc(N3CCOCC3)ncc1CC2,-1%,1.2%,-11%,5
Cc1c(NC(=O)COC(=O)CSc2ccc([N+](=O)[O-])cc2)c(=O)n(-c2ccccc2)n1C,-2%,-0.9%,x,x

Later entries:
structure,Rango release inh,Rango complex inh,miR-21 FLuc,GLA inh pH 4.5
NC(=S)NN=C1CCC2(CCCCC2)CC1,3%,4.3%,x,x
COc1cc2[nH]c(Cl)c([N+](=O)[O-])c2cc1OC,u,u,-4%,0
O=S(=O)(NCC(c1cccs1)N1CCc2ccccc2C1)c1ccccc1 (stereo not given),41%,0.2%,x,x
O=C(O)C1C2C=CC(C2)C1C(=O)NCc1ccccn1 (stereo not given),x,x,-4%,5
CC(=O)c1c(O)c(C)c(-c2ccccc2)n(-c2ccccc2)c1=O,-2%,-0.3%,-1%,-2
Cc1ccc(C)c(NC(=S)NNC(=O)c2sccc2C)c1,-8%,-1.2%,-41%,-3
COc1ccc(NC(=O)CN2C(=O)C(C)Oc3ccc(C)cc32)cc1 (stereo not given),-10%,u,3%,x
CCCc1ccc2oc(C(=O)NCc3nnc(C)o3)c(C)c2c1,-3%,0.2%,-51%,x
O=C(O)CCC(=O)NNC(=O)CCCOc1ccc(Cl)cc1Cl,0%,0.0%,-1%,5
CCN(C(=O)c1cccs1)c1nnc(-c2ccncc2)s1,1%,0.1%,-27%,5
COC(=O)/C=C1\SC(N)=NC1=O,3%,2.9%,1%,-7
O=C(Nc1ccc(Cl)cc1)NC1(C(=O)NCCCN2CCOCC2)CCCCC1,1%,0.6%,-11%,-6
COC(=O)CSc1nc2c(c(=O)n(C)c(=O)n2C)n1CCC(C)C,1%,-1.0%,1%,-4

Part of the list above, with the structure last.
Rango release inh	Rango complex inh	miR-21 FLuc	GLA inh pH 4.5	SMILES
3%	4.3%	x	x	NC(=S)NN=C1CCC2(CCCCC2)CC1
1%	0.6%	-11%	-6	O=C(Nc1ccc(Cl)cc1)NC1(C(=O)NCCCN2CCOCC2)CCCCC1
-3%	0.2%	-51%	x	CCCc1ccc2oc(C(=O)NCc3nnc(C)o3)c(C)c2c1
-10%	u	3%	x	COc1ccc(NC(=O)CN2C(=O)C(C)Oc3ccc(C)cc32)cc1 (stereo not given)

Some of these compounds in order of the Rango complex inh value, falling.
structure,Rango release inh,Rango complex inh,miR-21 FLuc,GLA inh pH 4.5
NC(=S)NN=C1CCC2(CCCCC2)CC1,3%,4.3%,x,x
COC(=O)/C=C1\SC(N)=NC1=O,3%,2.9%,1%,-7
O=S(=O)(NCC(c1cccs1)N1CCc2ccccc2C1)c1ccccc1 (stereo not given),41%,0.2%,x,x
O=C(O)CCC(=O)NNC(=O)CCCOc1ccc(Cl)cc1Cl,0%,0.0%,-1%,5

Screens from PubChem.
